# Screens from PubChem.
# MLL AF4-AF9 inh = inhibitors of AF4 peptide binding to AF9, primary screen, biochemical, AlphaScreen, biotin-AF4 peptide, FLAG-AF9, single point; 350,000 tested, 0.47% active; inhibition, % at 10 µM; AID 651704, 2012;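 active = every replicate reaching a set inhibition limit, whatever the replicate mean, cut at about 25% in these data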;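 also: 0% = plate neutral control median and 100% = total signal loss; the record names both 10 and 1 µM as test concentration; the first replicate is given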
# Target sequence (P42568 whole entry, looked up): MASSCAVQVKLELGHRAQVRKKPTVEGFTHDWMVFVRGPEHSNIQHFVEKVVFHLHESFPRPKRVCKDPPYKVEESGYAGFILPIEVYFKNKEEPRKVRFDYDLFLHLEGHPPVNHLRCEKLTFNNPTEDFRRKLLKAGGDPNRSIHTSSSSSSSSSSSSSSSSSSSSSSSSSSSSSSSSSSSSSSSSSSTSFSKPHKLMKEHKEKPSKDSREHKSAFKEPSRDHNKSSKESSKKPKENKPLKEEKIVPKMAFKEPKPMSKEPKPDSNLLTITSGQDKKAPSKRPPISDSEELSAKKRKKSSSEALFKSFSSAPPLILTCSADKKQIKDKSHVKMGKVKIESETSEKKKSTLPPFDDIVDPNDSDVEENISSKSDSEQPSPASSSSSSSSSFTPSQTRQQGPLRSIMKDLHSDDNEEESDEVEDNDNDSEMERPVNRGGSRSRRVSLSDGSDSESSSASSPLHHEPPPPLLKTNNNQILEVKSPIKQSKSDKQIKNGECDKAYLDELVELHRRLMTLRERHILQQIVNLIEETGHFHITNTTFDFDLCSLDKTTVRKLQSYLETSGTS
# Ecoli rRNA inh = reduced GFP signal of wild-type E. coli, primary screen, bacterial rRNA inhibitor project, GFP/RFP fluorescence, OD600, single point; E. coli WT GFP vs humanized-ribosome RFP mutants, 24 h; hits give low values; DMSO median 0, no signal -100; GFP signal change (wild-type ribosome), % (test concentration not listed); 350,000 tested, 1.6% active; AID 720706, 2013;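 active = significant combined selectivity score with lowered wild-type GFP, culture density cut under 30%, mutant RFP and density less affected; inactive = any of these conditions unmet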; also: one replicate is shown; some compounds called inactive have numbers as strong as hits
# Ecoli rRNA inh OD600 = recorded beside Ecoli rRNA inh, whose call it bears; OD600 change, %; measured here: OD600 growth;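 optical density of the mix in the first replicate; 0 = DMSO median and -100 = no signal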
# Ecoli rRNA inh RFP = recorded beside Ecoli rRNA inh, whose call it bears; RFP signal change, %; measured here: RFP humanized mutant strains;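 first replicate; 0 = DMSO median and -100 = no signal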
# * hit, by the source's call; & = joins results of further samples. Some of the compounds tested, so the mix of outcomes need not match the whole.
SMILES,MLL AF4-AF9 inh,Ecoli rRNA inh,Ecoli rRNA inh OD600,Ecoli rRNA inh RFP
O=C(C[C@H]1C=C[C@@H](NC(=O)c2ccccc2)[C@H](CO)O1)NCCc1ccncc1,-0.9,1,6,-0.2
C[C@@H]1CN([C@@H](C)CO)C(=O)c2cc(NS(=O)(=O)c3ccc(Cl)cc3)ccc2O[C@@H](C)CCCCO[C@H]1CN(C)Cc1ccc(C(=O)O)cc1,-0.4,0,1,0.2
COc1ccc(NC(=O)Nc2cccc3c2O[C@H](CN(C)C(=O)Nc2ccc(F)cc2)[C@@H](C)CN([C@H](C)CO)C3=O)cc1,1.6,-2,2,-1.5
Cc1cccc(-c2ccc([C@@H]3[C@H](CO)N4CCCCN(C(=O)NC(C)C)C[C@@H]34)cc2)c1,3.2,8,-26,1.6
CCNC(=O)[C@H]1[C@H](CO)[C@H]2Cn3c(ccc(/C=C/c4ccccc4)c3=O)[C@@H]1N2C(=O)C1CCCC1,-14,-5,-10,2.3
O=C(C[C@H]1CC[C@H](NC(=O)c2cccnc2)[C@@H](CO)O1)NCc1ccc(Cl)c(Cl)c1,0.8,-4,0,0.1
Cc1noc(C)c1S(=O)(=O)N(C)C[C@@H]1OCCCC[C@H](C)Oc2ccc(NC(=O)c3ccccc3)cc2C(=O)N([C@H](C)CO)C[C@H]1C,2.5,-1,5,2.1
COc1ccc(CN2C(=O)c3ccccc3C2c2nnnn2C(C)C)cc1OC (configuration not stated),-1.7,2,3,1.4
C[C@H](CO)N1C[C@H](C)[C@@H](CN(C)Cc2ccc(C(=O)Nc3ccccc3N)cc2)Oc2c(NC(=O)c3cnccn3)cccc2C1=O,3.4,-9,-3,-2.5
CCC(=O)N1CCC2(CC1)CN(C(=O)c1cnccn1)[C@H](CO)c1c2c2ccc(OC)cc2n1C,-19,4,2,-5.0
C[C@@H]1CCCCO[C@H](CN(C)Cc2ccc(Cl)c(Cl)c2)[C@@H](C)CN([C@H](C)CO)C(=O)c2cc(NS(=O)(=O)c3ccccc3)ccc2O1,0.5,3,1,3.9
O=C(C[C@@H]1CC[C@@H]2[C@H](COC[C@H](O)CN2C(=O)Nc2ccc(F)cc2)O1)NC1CCC1,-0.8,0,8,-1.9
CC(C)(C)c1ccc(OCCCC(=O)Nc2nnc(C3CC3)s2)cc1,-1.1,-7,-8,-3.1
C[C@@H]1CN([C@@H](C)CO)C(=O)c2cc(C3=CCCCC3)cnc2O[C@@H]1CN(C)C(=O)C1CCOCC1,-1.1,8,18,-3.0
COc1ccc(S(=O)(=O)N2CC[C@@H]3[C@H]2c2cc(C#Cc4cccnc4)ccc2N[C@@H]3CO)cc1,-4.2,-5,-7,-2.3
CC[C@]12c3[nH]c4cc(-c5ccco5)ccc4c3CCN1C(=O)[C@@H](CC(=O)NCCC1=CCCCC1)C[C@@H]2C(=O)N1CCN(C(=O)C2CC2)CC1,4.6,19,21,17
COCC(=O)N1C[C@@H]2[C@H](c3ccccc31)[C@H](CO)N2C(=O)c1ccccc1F,0.1,1,20,-2.6
Cc1noc(C)c1S(=O)(=O)Nc1cccc2c1O[C@H](CN(C)Cc1ccc(Cl)c(Cl)c1)[C@H](C)CN([C@@H](C)CO)C2=O,3.2,-2,-11,-1.1
C[C@@H]1CN([C@H](C)CO)C(=O)c2cc(NC(=O)c3ccncc3)ccc2O[C@H]1CN(C)C(=O)Nc1ccc(C(F)(F)F)cc1,-0.1,-6,-2,-2.4
CCc1nc2c(OCc3ccc(Cl)cc3Cl)cccn2c1N(C=O)Cc1ccc(OC)cc1,3.2,-10,-16,4.9
CCC(=O)N1C[C@@H](O)COC[C@@H]2O[C@@H](CC(=O)N3CCCCC3)CC[C@H]21,-1.1,-1,2,-0.9
CCC(=O)N1[C@@H]2c3ccc(-c4ccccc4)c(=O)n3C[C@@H]2[C@@H](CO)[C@@H]1C(=O)N1CCCCC1,0.1,-2,-5,-3.1
C[C@@H]1CN([C@@H](C)CO)C(=O)c2ccccc2-c2ccccc2CO[C@@H]1CN(C)C(=O)c1cc(Cl)cc(Cl)c1,-0.3,1,3,-0.1
C[C@@H]1CN([C@@H](C)CO)C(=O)Cc2cc(NC(=O)Cn3cnnn3)ccc2O[C@@H]1CN(C)Cc1ccncc1,-4.8,5,20,-1.2
COCC(=O)Nc1ccc2c(c1)[C@H]1C[C@@H](CC(=O)NCc3ccccn3)O[C@@H](CO)[C@H]1O2,-20,2,-13,-4.2
CC=Cc1ccc2n(c1=O)C[C@@H]1[C@@H](CO)[C@H](C(=O)N3CCc4ccccc4C3)N[C@H]21 (mixture of isomers),0.5,-1,-3,-1.1
C[C@@H]1CN([C@H](C)CO)C(=O)c2cccc(NS(=O)(=O)c3cn(C)cn3)c2O[C@@H]1CN(C)Cc1ccc(C(F)(F)F)cc1,-2.6,2,12,0.6
CN(C)Cc1cn(CC[C@@H]2CC[C@H](NC(=O)Nc3ccc4c(c3)OCO4)[C@H](CO)O2)nn1,1.6,-3,0,-1.0
C[C@@H]1CN([C@@H](C)CO)C(=O)c2cc(NC(=O)C3CC3)ccc2O[C@H]1CN(C)S(=O)(=O)c1ccc(F)cc1,-18,3,1,2.7
CC(C)NC(=O)N(C)C[C@@H]1Oc2ccc(NC(=O)Nc3ccc(F)cc3)cc2C(=O)N([C@H](C)CO)C[C@H]1C,-0.1,4,8,0.8

# Molecules above with a CF3 group:
SMILES,MLL AF4-AF9 inh,Ecoli rRNA inh,Ecoli rRNA inh OD600,Ecoli rRNA inh RFP
C[C@@H]1CN([C@H](C)CO)C(=O)c2cc(NC(=O)c3ccncc3)ccc2O[C@H]1CN(C)C(=O)Nc1ccc(C(F)(F)F)cc1,-0.1,-6,-2,-2.4
C[C@@H]1CN([C@H](C)CO)C(=O)c2cccc(NS(=O)(=O)c3cn(C)cn3)c2O[C@@H]1CN(C)Cc1ccc(C(F)(F)F)cc1,-2.6,2,12,0.6

# Next entries follow.
SMILES,MLL AF4-AF9 inh,Ecoli rRNA inh,Ecoli rRNA inh OD600,Ecoli rRNA inh RFP
N#C[C@H]1[C@H](c2ccc(C#Cc3ccccc3F)cc2)[C@H](CO)N1C(=O)C1CCC1,-4.4,1,-1,-0.1
COc1ccc(CN(C)C[C@H]2Oc3c(NC(=O)C4CCOCC4)cccc3C(=O)N([C@@H](C)CO)C[C@@H]2C)cc1,0.1,2,7,-0.3
COCc1[nH]nc2c1C(c1ccc(F)cc1)NC2=O (configuration not stated),-3.6,13,14,3.6
COc1ccc(S(=O)(=O)Nc2ccc3c(c2)C(=O)N([C@@H](C)CO)C[C@@H](C)[C@@H](CN(C)CC2CC2)O3)cc1,-5.3,0,-2,-0.8
COc1ccccc1S(=O)(=O)N[C@H]1CC[C@@H](CCn2cc(C3CC3)nn2)O[C@H]1CO,1.2,-1,-5,-3.3
Cc1noc(C)c1S(=O)(=O)Nc1ccc2c(c1)C(=O)N([C@@H](C)CO)C[C@@H](C)[C@H](CN(C)S(=O)(=O)c1ccc(F)cc1)OCCCC[C@H](C)O2,-1.3,-1,0,1.6
C[C@@H]1CN([C@@H](C)CO)C(=O)c2cccc(NS(=O)(=O)c3ccc(F)cc3)c2O[C@@H]1CN(C)S(=O)(=O)c1ccc(F)cc1,1.8,-4,-12,0.9
C[C@@H]1CCCCO[C@@H](CN(C)Cc2ccc(Cl)c(Cl)c2)[C@H](C)CN([C@@H](C)CO)C(=O)c2cc(NS(=O)(=O)c3ccc(F)cc3)ccc2O1,2.0,0,-1,8.6
C[C@H](CO)N1C[C@H](C)[C@H](CN(C)S(C)(=O)=O)Oc2ccc(NS(=O)(=O)c3ccccc3)cc2C1=O,-2.4,3,-2,-0.2
CC(C)C#Cc1ccc2c(c1)O[C@H](CN(C)C(=O)c1ccncc1)[C@@H](C)CN([C@@H](C)CO)S2(=O)=O,3.0,-3,-13,3.3
C[C@H]1CN([C@@H](C)CO)C(=O)Cc2cc(NC(=O)Cc3ccccc3)ccc2O[C@@H]1CN(C)Cc1ccc(Cl)c(Cl)c1,-1.1,-2,4,-1.0
O=C(NCC[C@H]1CC[C@@H](NC(=O)c2cccnc2)[C@@H](CO)O1)Nc1ccc(F)cc1,6.9,-1,-1,1.1
CCC(=O)N(C)C[C@H]1Oc2cc(C#CCC(C)C)ccc2S(=O)(=O)N([C@@H](C)CO)C[C@@H]1C,4.6,-7,-10,4.7
CCCC#Cc1ccc([C@H]2[C@H]3CN(C(=O)NC4CCCC4)CC(=O)N3[C@H]2CO)cc1,0.1,3,-2,0.6
O=C(NCC[C@H]1CC[C@H](NC(=O)C2CCC2)[C@H](CO)O1)c1ccc(F)cc1,-2.6,3,5,-0.8
COc1ccc(CN2CC3(CN(C(=O)C4CCC4)C3)c3c(n(C)c4cc(OC)ccc34)[C@@H]2CO)cc1,1.8,0,-3,-2.6
O=C(C[C@@H]1C[C@@H]2c3cc(NC(=O)Nc4ccc(C(F)(F)F)cc4)ccc3O[C@@H]2[C@@H](CO)O1)NCc1ccccn1,1.1,-6,9,5.3
C[C@H]1CN([C@@H](C)CO)C(=O)Cc2cc(NS(=O)(=O)c3cccs3)ccc2O[C@@H]1CN(C)C(=O)Nc1ccc(C(F)(F)F)cc1,-1.5,-6,-6,1.4
O=C([C@@H]1[C@@H](CO)[C@@H]2Cn3c(ccc(-c4ccncc4)c3=O)[C@@H]2N1CCC(F)(F)F)N1CCCCC1,-3.4,0,7,-1.5
CN1CCN(C(=O)C[C@H]2C[C@@H]3c4cc(NC(=O)NC5CCCC5)ccc4O[C@@H]3[C@@H](CO)O2)CC1,0.1,0,1,1.2
CCCNC(=O)[C@@H]1N[C@@H]2c3ccc(C4=CCCCC4)c(=O)n3C[C@@H]2[C@H]1CO,0.6,0,-2,0.8
C[C@H]1CCCCO[C@@H](CN(C)S(=O)(=O)c2ccccc2)[C@@H](C)CN([C@@H](C)CO)C(=O)c2cc(N(C)C)ccc2O1,13,-4,-1,0.9
C[C@@H]1CN([C@@H](C)CO)C(=O)c2cc(NC(=O)Nc3cccc4ccccc34)ccc2O[C@@H](C)CCCCO[C@H]1CN(C)Cc1ccc(C(=O)O)cc1,-0.3,-3,-2,0.3
O=C(C[C@H]1CC[C@H]2[C@@H](COC[C@@H](O)CN2Cc2cccc(-c3ccncc3)c2)O1)N1CCCCC1,-0.1,-2,0,-1.5
C[C@H]1CN([C@@H](C)CO)C(=O)c2cc(/C=C/c3ccccc3)cnc2O[C@@H]1CN(C)C(=O)c1cccnc1,-1.0,-3,3,8.4
C[C@@H]1CN([C@H](C)CO)C(=O)c2cc(-c3cccc(C(=O)N(C)C)c3)cnc2O[C@@H]1CN(C)CC1CC1,-3.9,2,5,-3.8
C[C@H](CO)N1C[C@H](C)[C@H](CN(C)C)OCc2ccccc2-c2ccccc2C1=O,-3.0,7,17,-2.1
C[C@H](CO)N1C[C@H](C)[C@@H](CN(C)S(C)(=O)=O)OCc2cn(nn2)CCCC1=O,-1.2&-2.5,2&20,0&15,-0.1&2.1
CCCCN(C(C)=O)c1c(CC)nc2ccc(C(=O)NCc3cccs3)cn12,-2.5,1,11,-0.9
CN1CCN(c2cccc3c2S(=O)(=O)N[C@@H](Cc2ccccc2)CO3)CC1,1.2,4,8,1.7

# Single records, from the list above.
# CN1CCN(c2cccc3c2S(=O)(=O)N[C@@H](Cc2ccccc2)CO3)CC1 is listed with MLL AF4-AF9 inh: 1.2; Ecoli rRNA inh: 4; Ecoli rRNA inh OD600: 8; Ecoli rRNA inh RFP: 1.7
# CCCNC(=O)[C@@H]1N[C@@H]2c3ccc(C4=CCCCC4)c(=O)n3C[C@@H]2[C@H]1CO is listed with MLL AF4-AF9 inh: 0.6; Ecoli rRNA inh: 0; Ecoli rRNA inh OD600: -2; Ecoli rRNA inh RFP: 0.8

# Next part:
SMILES,MLL AF4-AF9 inh,Ecoli rRNA inh,Ecoli rRNA inh OD600,Ecoli rRNA inh RFP
CC(=O)N(C)C[C@@H]1Oc2cc(-c3ccccc3C)ccc2S(=O)(=O)N([C@H](C)CO)C[C@@H]1C,0.1,-2,-4,-1.6
C[C@@H]1CN([C@H](C)CO)C(=O)c2cccc(NS(=O)(=O)c3cccs3)c2O[C@H]1CN(C)Cc1ccc(-c2ccccc2)cc1,0.2,0,-10,-0.8
CCCN(C)C[C@@H]1Oc2cc(C3=CCCCC3)ccc2S(=O)(=O)N([C@@H](C)CO)C[C@@H]1C,4.0,1,-3,1.9
COc1ccc(C2=C(c3ccccc3)OC(OC)c3cc(F)ccc32)cn1 (configuration not stated),7.0,-44,-76,-8.9
CN(C)C(=O)c1ccc(-c2ccc([C@H]3[C@@H](CO)N4CCCCN(C(=O)C5CC5)C[C@@H]34)cc2)cc1,0.1,1,1,1.7
CNC[C@@H]1Oc2c(NS(C)(=O)=O)cccc2C(=O)N([C@H](C)CO)C[C@H]1C,-1.5,4,5,-2.0
COc1ccccc1CNc1nc(NC(C)C)nc2cc(-c3ccccc3)sc12,8.5,-51,-58,-8.8
COc1ccc(C#Cc2ccc3c(c2)O[C@H](CN(C)C(=O)Nc2cccc(OC)c2)[C@H](C)CN([C@@H](C)CO)S3(=O)=O)cc1,-2.3,3,3,-0.7
CCCCN(C)C(=O)c1sc(=O)n(Cc2ccc(Cl)c(Cl)c2)c1C,2.0,-9,-9,-7.8
N#Cc1ccc(-c2cccc3nccn23)cc1,-5.0,5,7,9.8
